# Bioassay records (PubChem BioAssay)
# p53 HeLa: p53 stabilisation in HPV-positive human cells, imaging, p53-positive nuclei imaging, 24 h, 48 h (AID 1508601); Cellular tumor antigen p53 (Homo sapiens); p53-positive nuclei imaging, 48 h; stronger effect = higher value; some inactives read as strong as hits; p53-positive nuclei, normalised, % at 11 µM unless noted; 5,700 compounds, 1% hits;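 active = mean of two plates above 50% at 24 h or at 48 h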;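 also: HPV-positive HeLa cells with a fluorescent p53 stability reporter; 0% = vehicle and 100% = proteasome inhibitor control; doses worked out from stocks diluted about 900-fold with the highest of each compound shown; many of its hits are not listed in these tables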
# p53 HeLa cells 24 h: further read-out of p53 HeLa, marked with its call; nuclei count, normalised, %; measured here: cell number at 24 h;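 100% = vehicle wells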
# p53 HeLa p53 24 h: further read-out of p53 HeLa, marked with its call; p53-positive nuclei, normalised, %; measured here: p53 positive nuclei at 24 h;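 0% = vehicle and 100% = positive control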
# p53 HeLa cells 48 h: second read-out of p53 HeLa, no call of its own (marks repeat the call); nuclei count, normalised, %; measured here: cell number at 48 h;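 100% = vehicle wells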
# * hit, by the source's call; [ ] = dose if it differs, or a comment.
SMILES,p53 HeLa,p53 HeLa cells 24 h,p53 HeLa p53 24 h,p53 HeLa cells 48 h
Cc1ccc2c(=O)c3cccc(CC(=O)O)c3oc2c1C,-0.6[3.7 µM],115.4,-0.3,108.8
CCCCCC(CC(=O)NO)C(=O)NC(C(=O)N1CCCC1CO)C(C)C (stereo not given),-0.1,110.5,-0.1,107.9
O=c1cc(-c2ccc(O)cc2)oc2cc(O)cc(O)c12,0.0,114.3,0.5,111.7
Cc1cc(OCCCS(C)(=O)=O)cc(C)c1-c1cccc(COc2ccc3c(c2)OCC3CC(=O)O)c1 (stereo not given),0.3,103.0,0.0,103.1
COc1cc(C(=O)N(CCC2CCCN2C)CC(C)=Cc2ccccc2F)cc(OC)c1OC (stereo not given),0.0,107.0,-0.2,109.5
COC(=O)C#Cc1ccc([N+](=O)[O-])cc1,69.2*,49.2*,73.8*,32.5*
CSCCC(NC=O)C(=O)NC(CC(C)C)C(=O)NC(Cc1ccccc1)C(=O)O (stereo not given),-0.2,100.6,-0.1,99.8
O=c1ccc2ccc(O)cc2o1,0.0,104.9,0.0,106.6
CCc1cc(C(N)=S)ccn1,-0.1[3.7 µM],110.9,-0.2,110.7
CC(F)(F)CN1CCOc2c(nn(-c3ccccc3Cl)c2-c2ccc(Cl)cc2)C1=O,0.0,83.7,0.0,86.5
CC1=C(C(=O)OC(C)C)C(c2cccc([N+](=O)[O-])c2)C(C(=O)OC2CN(C(c3ccccc3)c3ccccc3)C2)=C(N)N1 (stereo not given),-0.3[3.7 µM],109.8,-0.5,107.1
CC(Cc1cc2c(c(C(N)=O)c1)N(CCCO)CC2)NCCOc1ccccc1OCC(F)(F)F (stereo not given),0.1,109.7,-0.1,105.1
CC(C)c1nc(CN(C)C(=O)NC(CCN2CCOCC2)C(=O)NC(CCC(Cc2ccccc2)NC(=O)OCc2cncs2)Cc2ccccc2)cs1 (stereo not given),4.2[3.7 µM],98.1,4.4,96.3
O=C(C=Cn1cnc(-c2cc(C(F)(F)F)cc(C(F)(F)F)c2)n1)N1CC(F)(F)C1,0.1[3.7 µM],66.2,-0.2,53.0
CN(c1ccccc1CNc1nc(Nc2ccc3c(c2)CC(=O)N3)ncc1C(F)(F)F)S(C)(=O)=O,54.9*,36.5*,27.2*,25.6*
O=C(Nc1cc(C(F)(F)F)cc(C(F)(F)F)c1)c1cc(Cl)ccc1O,-0.3[3.7 µM],77.3,-0.5,64.2
CC(O)C(O)C1CNc2nc(N)[nH]c(=O)c2N1 (stereo not given),0.0,75.7,0.0,79.5
CC(C=CC(C)C(C)(C)O)[C@@H]1CC[C@@H]2C(=CC=C3CC(O)CC(O)C3)CCC[C@@]21C (stereo not given in full),-0.2,102.8,0.0,100.5
CC(C)C(N)C(=O)NC(Cc1ccccc1)C(=O)O (stereo not given),0.0,113.1,-0.1,102.4
O=C(NCCO)c1cccc(-c2cc(Nc3ccc(OC(F)(F)F)cc3)ncn2)c1,-0.1,103.0,-0.1,108.9
Nc1cccc(OCc2ccccc2)c1,0.1,99.0,-0.2,103.4
COc1ccc(-n2c(C)c([N+](=O)[O-])c3ccc(O)cc32)cc1,0.0[3.7 µM],74.5,-0.3,81.8
O=C(Nc1cn[nH]c1-c1nc2ccc(CN3CCOCC3)cc2[nH]1)NC1CC1,3.1,21.3,2.4,17.3
Cn1c(SCC(=O)N2CCCC2C(=O)Nc2ccccc2-c2ccccc2)nc2ccccc21 (stereo not given),-0.1,112.6,-0.1,102.7
C#Cc1cccc(Nc2ncnc3cc4c(cc23)OCCOCCOCCO4)c1,-0.2,98.7,-0.1,98.4
CCNC(=O)c1cc2c(-c3cc(OCCN4CCCC4)c(Cl)cc3Cl)nc(N)nc2s1,0.2,43.1,0.1,29.5
O=C(C=Cc1ccccc1)NC(NC(=S)Nc1cccc2cccnc12)C(Cl)(Cl)Cl (stereo not given),-0.2[3.7 µM],118.3,-0.5,110.8
CC(O)C(CO)NC(=O)C1CSSCC(NC(=O)C(N)Cc2ccccc2)C(=O)NC(Cc2ccccc2)C(=O)NC(Cc2c[nH]c3ccccc23)C(=O)NC(CCCCN)C(=O)NC(C(C)O)C(=O)N1 (stereo not given),0.0,97.4,0.1,102.9
O=C(O)[C@H](Cc1c[nH]c2ccccc12)N1C(=O)c2ccccc2C1=O,-0.1[3.7 µM],112.8,-0.5,109.8
CC(NC(=O)C(O)c1cc(F)cc(F)c1)C(=O)NC1C(=O)N(C)c2ccccc2-c2ccccc21 (stereo not given),-0.1,104.7,-0.1,101.5
COCCOC(=O)C1=C(C)NC(C)=C(C(=O)OCC=Cc2ccccc2)C1c1cccc([N+](=O)[O-])c1 (stereo not given),-0.4[3.7 µM],117.2,-0.5,100.0
COc1ccc(-c2coc3cc(O)ccc3c2=O)cc1,-0.1[3.7 µM],112.2,-0.2,102.9
N#CCNC(=O)c1ccc(-c2ccnc(Nc3ccc(N4CCOCC4)cc3)n2)cc1,1.9,55.5,1.1,35.7
O=C(O)C(O)Cc1ccc(O)c(O)c1 (stereo not given),0.1[3.7 µM],94.6,-0.2,95.1
COc1ccc2cccc(CCNC(C)=O)c2c1,-0.7[3.7 µM],91.4,-0.4,93.0
Nc1ncnc2c1c(-c1cccc(OCc3ccccc3)c1)cn2C1CC(CN2CCCC2)C1 (stereo not given),-0.6[3.7 µM],106.7,-0.2,96.3
Nc1nc2n[nH]nc2c(=O)[nH]1,-0.2[3.7 µM],115.9,-0.3,111.2
S=C1NC=NC2N=CNC12 (stereo not given),0.1,78.1,0.0,48.7
O=c1sn(-c2cccc3ccccc23)c(=O)n1Cc1ccccc1,0.4,82.6,1.0,92.9
C[C@@]1(c2cc(-c3cncnc3)c(F)cc2F)CCSC(N)=N1,-0.6[3.7 µM],113.8,-0.3,109.5

# Fetched by structure from the entries so far:
SMILES,p53 HeLa,p53 HeLa cells 24 h,p53 HeLa p53 24 h,p53 HeLa cells 48 h
Cn1c(SCC(=O)N2CCCC2C(=O)Nc2ccccc2-c2ccccc2)nc2ccccc21 (stereo not given),-0.1,112.6,-0.1,102.7
O=C(O)C(O)Cc1ccc(O)c(O)c1 (stereo not given),0.1[3.7 µM],94.6,-0.2,95.1

# Going on with the list.
SMILES,p53 HeLa,p53 HeLa cells 24 h,p53 HeLa p53 24 h,p53 HeLa cells 48 h
CC1(C)S[C@@H]2C(NC(=O)C(N)c3ccc(O)cc3)C(=O)N2C1C(=O)O (stereo not given in full),-0.3[3.7 µM],113.5,-0.3,116.2
CN(C)c1nc(N(C)C)nc(N(C)C)n1,-0.5[3.7 µM],100.4,-0.1,99.8
Cc1cc(Nc2ncnc3ccc(-c4ccc(CNCCS(C)(=O)=O)o4)cc23)ccc1Oc1ccn2ncnc2c1,-0.1[3.7 µM],101.2,-0.3,104.0
O=C(CCCCCCNC(=O)c1cnc(N(c2ccccc2)c2ccccc2)nc1)NO,0.2,99.8,0.5,93.8
Nc1cccc(-c2cc3c(Oc4cccc(O)c4)ncnc3[nH]2)c1,1.0,48.7,0.7,30.9
CC1CCN(C(=O)CC#N)CC1N(C)c1ncnc2[nH]ccc12 (stereo not given),0.0,109.9,0.1,113.4
CC1=C(C(=O)Nc2cc3cn[nH]c3cc2F)C(c2ccc(C(F)(F)F)cc2)CC(=O)N1 (stereo not given),-0.1,108.7,0.0,110.8
C=CC(=O)Nc1cccc(Oc2nc(Nc3ccc(N4CCN(C)CC4)cc3OC)ncc2Cl)c1,0.0,88.0,0.0,96.3
CNC(C)C(=O)NC(C(=O)N1CCCC1C(=O)NC(C(=O)NCCCCCCNC(=O)C(NC(=O)C1CCCN1C(=O)C(NC(=O)C(C)NC)C1CCCCC1)C(c1ccccc1)c1ccccc1)C(c1ccccc1)c1ccccc1)C1CCCCC1 (stereo not given),-0.1[3.7 µM],108.0,-0.3,102.1
CNC(=O)C(Cc1ccccc1)NC(=O)C(CC(C)C)C(CSc1cccs1)C(=O)NO (stereo not given),0.0[3.7 µM],103.8,-0.3,96.7
Oc1ccc(C2COc3cc(O)ccc3C2)cc1 (stereo not given),-0.1[3.7 µM],102.1,-0.5,101.5
COc1ncc(-c2ccc3nccc(-c4ccnnc4)c3c2)cc1NS(=O)(=O)c1ccc(F)cc1F,-0.2[3.7 µM],57.8,-0.2,57.4
Nc1[nH]nc2nnc(-c3c(-c4ccccc4)nn4ccccc34)cc12,0.1,71.0,0.0,76.2
Nc1nc(N)c2nc(-c3cccc(O)c3)cnc2n1,0.0[3.7 µM],107.8,-0.4,102.3
OCc1ccc(OC2OC(CO)C(O)C(O)C2O)cc1 (stereo not given),-0.1[3.7 µM],113.6,-0.5,103.6
COc1cc2nc(N3CCN(C(=O)C4CCCO4)CC3)nc(N)c2cc1OC (stereo not given),0.0,100.0,-0.1,104.4
CC(=O)c1cccc(NC(=O)CN2CCc3cc4c(cc3C2)OCCCO4)c1,0.0,105.9,0.1,98.2
Cc1c(C(=O)Nc2ccc(N3CCC(N4CCOCC4)CC3)c(C#N)c2)cnn1-c1ccc(Cl)cc1,-0.1[3.7 µM],125.1,-0.3,120.3
COc1ccc(Cl)cc1NC(=O)Nc1cc(C)nc2ccccc12,-0.1[3.7 µM],112.2,-0.3,100.6
CCOC(=O)c1ccc(OC(=O)CCCCCN=C(N)N)cc1,0.1[3.7 µM],106.9,-0.3,112.4

# An excerpt of these results, with values under each structure:
# Sequence of screens – p53 HeLa	p53 HeLa cells 24 h	p53 HeLa p53 24 h	p53 HeLa cells 48 h
> CC1(C)S[C@@H]2C(NC(=O)C(N)c3ccc(O)cc3)C(=O)N2C1C(=O)O (stereo not given in full)
    -0.3[3.7 µM]	113.5	-0.3	116.2
> CN(C)c1nc(N(C)C)nc(N(C)C)n1
    -0.5[3.7 µM]	100.4	-0.1	99.8
> COc1ccc(Cl)cc1NC(=O)Nc1cc(C)nc2ccccc12
    -0.1[3.7 µM]	112.2	-0.3	100.6

# Next entries follow:
SMILES,p53 HeLa,p53 HeLa cells 24 h,p53 HeLa p53 24 h,p53 HeLa cells 48 h
NS(=O)(=O)c1cc2c(cc1Cl)NC=NS2(=O)=O,-0.2[3.7 µM],105.2,-0.3,107.7
CC(C)N=c1cc2n(-c3ccc(Cl)cc3)c3ccccc3nc-2cc1Nc1ccc(Cl)cc1,0.0[3.7 µM],84.2,-0.3,87.0
Cc1nccn1CC1CCc2c(c3ccccc3n2C)C1=O (stereo not given),-0.6[3.7 µM],112.4,-0.3,106.9
CC(C)c1onc(-c2c(Cl)cccc2Cl)c1COc1ccc(C=Cc2cccc(C(=O)O)c2)c(Cl)c1,0.2,111.2,0.2,99.9
CCC1C(=O)N(C)c2cnc(Nc3ccc(C(=O)NC4CCN(C)CC4)cc3OC)nc2N1C1CCCC1 (stereo not given),16.6,31.6,8.1,19.5
O=c1ncn2nc(Sc3ccc(F)cc3F)ccc2c1-c1c(Cl)cccc1Cl,-0.2,106.1,-0.1,106.4
COc1ccc(N2C(=O)C(=Cc3ccc([N+](=O)[O-])s3)SC2=S)cc1,116.8*,37.6*,121.0*,24.4*
CCCCC(NC(=O)C(Cc1cn(C(=O)OC)c2ccccc12)NC(=O)C(CC(C)(C)C)NC(=O)N1C(C)CCCC1C)C(=O)O (stereo not given),0.1,112.8,0.1,115.7
COC(=O)Nc1nc2ccc(C(=O)c3cccs3)cc2[nH]1,5.1[3.7 µM],38.2,2.4,27.9
COc1cc2c(cc1O)CC[C@@H]1[C@H]2CC[C@]2(C)C(O)CC[C@@H]12 (stereo not given in full),6.7[3.7 µM],53.0,1.6,38.0
CC#C[C@@]1(O)CC[C@H]2[C@@H]3CCC4=CC(=O)CCC4=C3C(c3ccc(N(C)C)cc3)C[C@@]21C (stereo not given in full),-0.2[3.7 µM],107.8,-0.2,96.8
COc1cc2c(Nc3ccc(NC(=O)c4ccccc4)cc3)ncnc2cc1OCCCN1CCOCC1,0.7,38.6,0.0,22.1
Cc1c(Cn2c(C)nc3c(C(=O)O)cc(N4CCOCC4)cc32)cccc1C(F)(F)F,0.0,96.8,-0.2,100.8
Cc1cc(C)cc(NC(=O)Cc2ccc(OC(C)(C)C(=O)O)cc2)c1,0.1[3.7 µM],117.9,-0.2,117.5
CCCCC(=O)OC1CC[C@H]2[C@@H]3CCc4cc(O)ccc4[C@@H]3CC[C@]12C (stereo not given in full),0.3[3.7 µM],108.2,0.0,108.9
COc1ccc(C2CC(=O)c3c(O)cc(OC4OC(COC5OC(C)C(O)C(O)C5O)C(O)C(O)C4O)cc3O2)cc1O (stereo not given),0.0[3.7 µM],101.6,-0.2,105.2
CCCNC(=O)NS(=O)(=O)c1ccc(Cl)cc1,-0.1[3.7 µM],109.5,-0.1,107.3
NC(=O)c1ncn(C2OC(CO)C(O)C2O)n1 (stereo not given),-0.1[3.7 µM],103.0,-0.3,101.1
CC(C)(C)C(=O)OCOP(=O)(COCCn1cnc2c(N)ncnc21)OCOC(=O)C(C)(C)C,0.2[3.7 µM],62.4,0.4,52.9
c1coc(CNc2ncnc3nc[nH]c23)c1,-0.3[3.7 µM],121.9,-0.6,108.0
CN(C)CCCN1c2ccccc2CCc2ccc(Cl)cc21,0.0[3.7 µM],107.8,0.0,106.5
Nc1nc(F)nc2c1ncn2C1OC(CO)C(O)C1O (stereo not given),-0.2,92.9,0.0,88.5
CC(C)n1nc(-c2cc3cc(O)ccc3[nH]2)c2c(N)ncnc21,-0.1[3.7 µM],68.2,0.1,66.9
NC1=NCC2c3ccccc3Cc3ccccc3N12 (stereo not given),-0.1[3.7 µM],115.6,-0.3,107.4
CC1C(=O)O[C@@H]2CC34C5CC(C(C)(C)C)C36C(OC(=O)C6O)O[C@@]4(C(=O)O5)[C@@]12O (stereo not given in full),-0.1,99.5,-0.1,101.7

# Some of the compounds tested. The share of hits here may be higher or lower than overall.
